# Screens (PubChem)
# MT1-MMP act inh: blocks activation of human MT1-MMP. P50281. HT1080 RFP-PRO-GFP cells, GFP/RFP ratio fluorescence, overnight; percent of plate control window, DMSO zero. GFP/RFP ratio change, % at 20 µM. 360,000 tested, 0.061% active;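 active = GFP/RFP ratio change of at least 30% with cell ATP level not reduced by more than half and red fluorescence within 50% of control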; also: strong numbers were not always called active
#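 Assay system: HT1080 cells carrying an RFP-PRO-GFP reporter | Dosing: Single dose of 20 µM compound, 1% DMSO final | Incubation: Cells overnight before dosing, compound overnight, 37 °C, 5% CO2 | Evaluation: GFP/RFP fluorescence ratio | Control set: DMSO and RFP-L50D-GFP cell wells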
# CSC inhib: cancer stem cell inhibition | cancer stem cell-like cells viability, luminescence | inhibition, % at 7.5 µM | 300,000 tested, 1.1% active | AID 2717;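 active = mean at 75% or more and at least half the replicates too; inconclusive = mean and replicates disagree; tested in HMLE shEcad cells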;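 also: 0% = median of negative and 100% = median of positive control wells; the first replicate is given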
# eIF4H inh: inhibitors of RNA binding by human eIF4H; AID 2012; 290,000 tested, 0.94% active; Q15056; inhibition, % at 35 µM; eIF4H fluorescence polarization binding assay;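 active = 50% or more with normal probe brightness, or confirmed in later tests; inconclusive = above 50% with abnormal brightness, or retests that disagree; inactive = below 50% or failed in later tests; about a fifth of its hits are not listed in these tables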;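 also: calls also rest on retests at 20 µM and on dose response follow-up; 0% = protein and probe with vehicle and 100% = probe without protein; strong numbers were not always called active; many hits fall short of the cut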
# HIV Env fusion: blocks HIV Env-driven cell-cell fusion. inhibition, % at 12.3 µM. AID 651610. 360,000 tested, 1.1% active. HeLa-JRFL Env/CEM21 cell fusion, luciferase;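 active = mean replicate inhibition score of at least 50 and every replicate individually at or above 50; inconclusive = only one of the two criteria met; inactive = mean below 50 and not all replicates reaching 50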;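 also: 0% = plate neutral controls and 100% = maraviroc near 300 nM; one replicate is shown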
# Yeast UUG start: modulators of start codon recognition fidelity in yeast | S. cerevisiae UUG-firefly luciferase reporter, luminescence/redox ratio | activity score, % at 18.7 µM | 350,000 tested, 0.13% active;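 active = replicate mean at a twofold rise or more, about +100% in these data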;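 also: firefly luciferase made from a UUG start codon reports start codon fidelity; reporter light over untreated wells divided by growth signal over untreated wells; some hits fall short of that in this replicate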
# PABP polyA inh: PABP-poly(A) binding inhibition | P11940 | PABP-poly(A) RNA binding, fluorescence polarization | inhibition, % at 35 µM | 290,000 tested, 1% active | AID 2014;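 active = 50% or more with normal probe brightness, or confirmed in later tests; inconclusive = above 50% with abnormal brightness, or retests that disagree; inactive = below 50% or failed in later tests; about a fifth of its hits are not listed in these tables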;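 also: calls also rest on retests at 20 µM and on dose response follow-up; controls were probe without protein and protein plus probe with vehicle; some compounds called inactive have numbers as strong as hits; many hits fall short of the cut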
# Target sequence (P11940 whole entry, looked up): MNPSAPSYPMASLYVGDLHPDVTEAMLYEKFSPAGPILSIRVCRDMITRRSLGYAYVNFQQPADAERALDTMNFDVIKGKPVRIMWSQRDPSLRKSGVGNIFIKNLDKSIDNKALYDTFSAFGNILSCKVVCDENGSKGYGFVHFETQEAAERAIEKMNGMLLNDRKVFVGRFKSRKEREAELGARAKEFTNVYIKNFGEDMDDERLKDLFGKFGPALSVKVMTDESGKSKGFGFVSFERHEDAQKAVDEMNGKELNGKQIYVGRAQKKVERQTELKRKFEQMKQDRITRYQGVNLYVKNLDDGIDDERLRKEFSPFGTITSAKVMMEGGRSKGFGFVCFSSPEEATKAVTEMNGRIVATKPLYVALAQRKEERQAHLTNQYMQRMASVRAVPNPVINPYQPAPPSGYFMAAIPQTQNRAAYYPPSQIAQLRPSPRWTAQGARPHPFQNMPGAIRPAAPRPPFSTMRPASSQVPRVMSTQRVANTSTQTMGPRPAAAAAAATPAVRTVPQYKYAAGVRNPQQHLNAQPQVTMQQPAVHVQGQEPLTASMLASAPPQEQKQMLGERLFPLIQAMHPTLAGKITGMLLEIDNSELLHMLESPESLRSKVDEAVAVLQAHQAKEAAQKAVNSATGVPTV
# Rce1 inh: yeast Ras-converting enzyme inhibition. Q03530. yeast membranes, quenched prenylated peptide cleavage fluorescence. calls only. 290,000 tested, 0.27% active. AID 2563;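 active = fall in fluorescence gain of 50% or more versus controls, with final raw signal at or below 3038400; inconclusive = same 50% fall but final raw signal above 3038400; inactive = fall in fluorescence gain under 50%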;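 also: plate controls were neutral control wells for no effect and wells lacking membranes for full effect; tested at 10 µM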
# Target sequence (Q03530 whole entry, looked up): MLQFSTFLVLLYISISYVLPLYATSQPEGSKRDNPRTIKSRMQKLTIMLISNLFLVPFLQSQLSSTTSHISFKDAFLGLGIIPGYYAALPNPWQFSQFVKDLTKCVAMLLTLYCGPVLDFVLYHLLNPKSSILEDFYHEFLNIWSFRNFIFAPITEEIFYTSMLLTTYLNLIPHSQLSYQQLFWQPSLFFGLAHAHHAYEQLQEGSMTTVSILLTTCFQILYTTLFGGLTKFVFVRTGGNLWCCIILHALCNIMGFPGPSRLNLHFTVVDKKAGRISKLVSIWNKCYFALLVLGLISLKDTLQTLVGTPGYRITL
# eIF4H inh retest: second read-out of eIF4H inh, no call of its own (marks repeat the call); inhibition, %; compound at 20 µM; confirmation average;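 mean of two retest wells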
# PABP polyA inh retest: second read-out of PABP polyA inh, no call of its own (marks repeat the call); inhibition, %; compound at 20 µM; confirmation repeats;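 mean of two retest wells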
# MT1-MMP act inh RFP: further read-out of MT1-MMP act inh, marked with its call; RFP signal change, %; measured here: RFP expression control read;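 0 = vehicle wells; hits needed this value within 50% of zero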
# The depositor's hits bear a star; i = inactive; ? = inconclusive; . = no result given. A portion of the library; the hit share may differ from the screen's.
SMILES,MT1-MMP act inh,MT1-MMP act inh RFP,CSC inhib,eIF4H inh,HIV Env fusion,Yeast UUG start,PABP polyA inh,Rce1 inh,others
CC1CCc2c(sc3ncn4c(SCC(=O)NCc5ccco5)nnc4c23)C1 (stereo not drawn),5,0,3,-15,.,-9,4,i,
COc1ccc(CCNC(=O)CCS(=O)(=O)Cc2ccccc2C)cc1OC,6,3,.,-8,0,3,-7,i,
CCN(C(=O)CSc1nc2cc(C(=O)OC)ccc2c(=O)n1Cc1ccco1)c1cccc(C)c1,-3,-6,14,-6,-72,32,-2,i,
CCn1c(SCC(=O)NC(=O)NCc2ccco2)nnc1-c1cccs1,-1,2,-12,25,-8,-16,3,i,
COc1ccc(CC(=O)NC(C)(C)C)cc1S(=O)(=O)N1CCOCC1,1,5,.,1,-74,-16,-8,i,
O=C(CC1Oc2ccccc2NC1=O)NCCCN1CCOCC1 (stereo not drawn),-2,5,-7,3,-20,-3,-8,i,
CC1=NNC(=O)C1CC(=O)N/N=C/C(Br)=C/c1ccccc1 (stereo not drawn),4,1,8,-7,2,-26,0,i,
COc1cccc(CN2CC(C(=O)NCCCc3ccncc3)CCC2=O)c1 (stereo not drawn),-6,-1,-7,-8,-8,-4,4,i,
O=C1C=CC(=O)N1CCNc1ncc(C(F)(F)F)cc1Cl,-10,-3,.,9,17,.,2,i,
COc1cccc(NS(=O)(=O)NC(=O)c2c(C)[nH]c3ccccc23)c1,0,1,3,-12,-1,-9,3,i,
COc1cc(/C=N/S(=O)(=O)CCc2ccccc2)cc(OC)c1O,5,8,10,0,33,-15,-1,i,
CC(C)(C)C(=O)CN1CCN(C2c3ccccc3-c3ccccc32)CC1,-4,1,.,4,-39,4,2,i,
O=C(Cc1ccccc1)NCC(=O)N/N=C/c1ccc(C(=O)O)cc1,-2,2,-11,-10,3,-3,4,i,
CC(=O)c1sc(Nc2ccc(Oc3ccccc3)cc2)nc1C,0,-13,.,.,-291,-23,.,.,
COc1ccc(-c2cc(-c3ccccc3)nc(SCC(=O)Nc3ncc(C)s3)c2C#N)cc1,-12,-12,-1,-2,9,-13,6,i,
O=C(Cn1cnc2c(OCc3ccccc3)ncnc21)NCc1nc2ccccc2[nH]1,-1,2,.,.,28,-17,.,.,
C/C(=N\NC(N)=S)c1ccc(-n2ccnc2)cc1,0,1,-6,4,27,-15,9,i,
CCOC(=O)N1CCN(C(=O)COC(=O)C2CCN(S(=O)(=O)c3ccc(C)c(C)c3)CC2)CC1,0,2,-10,.,.,-6,.,i,
O=C(NCC(c1cccnc1)N1CCN(c2ccccc2)CC1)c1ccco1 (stereo not drawn),6,-2,.,.,8,-4,.,i,
CC1(C)CC(=O)C2=C(C1)N(c1ccccc1)C(=O)C2(O)C(F)(F)F (stereo not drawn),-2,6,-1,4,.,-6,9,i,
COC(=O)c1cccc(COC(=O)c2ccc(CS(=O)(=O)c3ccc(C)cc3)cc2)c1,-1,-11,10,-6,-286,-11,-9,i,
Cc1oc2cc(O)ccc2c(=O)c1Oc1ccccc1,6,1,-4,1,.,-2,28,i,
CCCCn1c(SCC(=O)Nc2cc(C(F)(F)F)ccc2Cl)nnc1C(CC)N(C)C (stereo not drawn),1,-1,4,-4,9,4,1,i,
O=C(N/N=C/c1ccc(-c2ccccc2Cl)o1)c1ccccc1,4,-5,63,3,-73,.,7,i,
c1ccc(Oc2cccc(OCCn3cncn3)c2)cc1,2,-1,17,-4,27,-8,39,i,
Cc1c(C(=O)Nc2nc3ccccc3[nH]2)oc2ccccc12,7,-6,-7,11,.,.,0,i,
Cc1cccc(-c2nc(CSCC(=O)NCCCN3CCOCC3)c(C)o2)c1,0,4,-1,1,1,-16,-2,i,
Cc1cc(NC(=O)C(Cl)Cl)cc2c1OCO2,2,3,.,.,33,2,.,.,
O=C(COC(=O)C1(c2ccccc2F)CCCC1)NCc1ccc2c(c1)OCO2,1,-5,-4,3,36,.,-1,i,
CC(=O)Nc1cccc(-c2csc(Nc3cccc(C)n3)n2)c1,3,-8,19,-4,.,4,7,i,
CCCNC(=O)c1ccc(N2CCC3(CC2)CC(c2ccccc2)=NO3)c(NC(=O)c2ccccc2)c1,3,-6,14,-7,22,-5,4,i,
Cc1ccc(N(CCC#N)C(=O)CCl)cc1C,-15,-15,0,-8,31,-9,-4,i,
CC(C)(C)C(CN1CCCC1)OC(=O)c1ccccc1 (stereo not drawn),0,3,-5,-9,6,0,2,i,
CCOc1ccc(S(=O)(=O)N(CC)CC)cc1N,3,0,-2,-2,-7,.,7,i,
CC1Cc2nc(SCC(=O)Nc3ccc(F)cc3)n(C)c(=O)c2S1 (stereo not drawn),3,0,-4,-5,.,.,-2,i,
CC(NC(=O)C(c1ccccc1)c1ccccc1)C(=O)N1CCCCC1 (stereo not drawn),-2,-1,-4,3,6,.,31,i,
CCOC(=O)c1c2c(c(=S)n(-c3ccccc3)c1N)CCC2,-6,5,-14,41,20,4,52,i,eIF4H inh retest=37;PABP polyA inh retest=44
CC(C)N1C(=O)CSC1c1ccc(Br)cc1 (stereo not drawn),9,5,-11,-4,2,.,3,i,
Fc1ccc(-n2nnc(-c3nccs3)n2)cc1,4,2,14,0,-139,-25,-9,i,
CC1CN(S(=O)(=O)c2cccc(C(=O)OCC(=O)N3CCCCCC3)c2)CC(C)O1 (stereo not drawn),-2,3,1,.,-2,-22,.,.,
COC(=O)c1ccc(Nc2cc(C)nc3ccccc23)cc1,0,8,39,-12,8,-11,2,i,
CCOCCCNC(=O)COc1ccc(OC)cc1,-1,3,-1,-8,-52,0,4,i,
COc1ccc2c(c1OC)C(=O)N1C2SC[C@H]1C(=O)NC1CCCCC1 (stereo partly drawn),9,-2,-1,1,.,-7,-1,i,
O=S(=O)(c1ccc(Br)cc1)N1CCCN(Cc2cccc(F)c2)CC1,-2,1,29,11,32,-5,13,i,
Cc1cc(C)c(S(=O)(=O)N2CCOC2CNC(=O)C(=O)NCCc2ccc(S(N)(=O)=O)cc2)c(C)c1 (stereo not drawn),6,-7,-4,16,18,12,-8,i,
CCOC(=O)c1ccccc1NC(=O)CSc1nnc(Cc2cccn2C)n1-c1ccc(F)cc1,-7,-2,-5,-3,-39,-7,8,i,
CC(C)(C)OC(=O)NC1CONC1=O (stereo not drawn),1,-4,-13,4,13,-8,1,i,
CC(Oc1ccc(Cl)cc1)C(=O)NCC1CCCO1 (stereo not drawn),2,7,-5,-1,-9,1,14,i,
O=C(O)C(Cc1cc2ccccc2[nH]1)N1C(=O)C2CC=C(Cl)CC2C1=O (stereo not drawn),4,0,-6,-13,.,8,-1,i,
CCCCN(C(=O)c1cc(CC)c(C)s1)c1c(N)n(CCC)c(=O)[nH]c1=O,-3,-2,-10,.,-2,.,.,i,

# Random excerpt: five records from the list.
SMILES,MT1-MMP act inh,MT1-MMP act inh RFP,CSC inhib,eIF4H inh,HIV Env fusion,Yeast UUG start,PABP polyA inh,Rce1 inh,others
CC(Oc1ccc(Cl)cc1)C(=O)NCC1CCCO1 (stereo not drawn),2,7,-5,-1,-9,1,14,i,
CCOCCCNC(=O)COc1ccc(OC)cc1,-1,3,-1,-8,-52,0,4,i,
CC(C)(C)OC(=O)NC1CONC1=O (stereo not drawn),1,-4,-13,4,13,-8,1,i,
CCOC(=O)c1ccccc1NC(=O)CSc1nnc(Cc2cccn2C)n1-c1ccc(F)cc1,-7,-2,-5,-3,-39,-7,8,i,
O=S(=O)(c1ccc(Br)cc1)N1CCCN(Cc2cccc(F)c2)CC1,-2,1,29,11,32,-5,13,i,

# Following part:
SMILES,MT1-MMP act inh,MT1-MMP act inh RFP,CSC inhib,eIF4H inh,HIV Env fusion,Yeast UUG start,PABP polyA inh,Rce1 inh,others
CC1=[N+]([O-])C(C)(C)CC(C)(C)c2ccccc21,4,2,3,-6,.,-5,15,i,
O=C(Nc1ccc2nc(-c3cccs3)[nH]c2c1)c1cccs1,11,5,7,-9,-66,-22,-16,i,
Cn1c(-c2ccsc2)c(-c2cccs2)c2cc(-c3ccc4[nH]ccc4c3)ccc21,-1,-5,?,.,7,-14,.,.,
c1ccc(-c2ccccc2OCc2nnc3n2CCC3)cc1,1,2,-6,-2,-2,.,-5,i,
OCC1(Cc2ccccc2)CCCN(Cc2c[nH]c3ccccc23)C1 (stereo not drawn),-2,3,14,-8,-9,.,2,i,
O=C(CSc1ncnc2c1cnn2-c1cccc(Cl)c1)NCC1CCCO1 (stereo not drawn),6,-6,-12,2,4,-21,-4,i,
CCCCn1c(N)c(N(CC)C(=O)c2ccc3c(c2)S(=O)(=O)c2ccccc2C3=O)c(=O)[nH]c1=O,2,-1,14,-2,-18,12,8,i,
Fc1ccc(-c2nc3c(Cl)cc(C(F)(F)F)cn3c2Cc2ccccc2)cc1,1,2,.,.,-10,-2,.,.,
COc1cccc(Cn2cc(N)cn2)c1,4,-1,3,-8,19,.,-6,i,
O=C(c1ccc(Cn2c(=S)[nH]c3ccc(N4CCOCC4)cc3c2=O)cc1)N1CCN(c2ccc(F)cc2)CC1,-1,-19,40,33,19,.,9,i,
Cc1cccc(C(=O)Nc2ccc(N3CCN(c4ccc(C(F)(F)F)cn4)CC3)nc2)c1,1,-2,-8,2,9,-14,-6,i,
CC(C)c1[nH]nc2c1C(c1ccco1)C(C#N)=C(N)O2 (stereo not drawn),-1,-1,-1,-12,-5,-16,5,i,
CC1CC[C@@]2(OC1)O[C@H]1CC3[C@@H]4C[C@@H](O)[C@@]5(O)C[C@@H](O)[C@H](O)C[C@]5(C)[C@H]4CC[C@]3(C)[C@H]1[C@@H]2C (stereo partly drawn),0,3,-21,-7,5,.,9,i,
N#CC1CCCc2c1[nH]c1ccc([N+](=O)[O-])cc21 (stereo not drawn),-3,1,8,-2,1,-11,-4,i,
Cc1cccnc1C(NC(=O)C1CCN(CCOc2ccc(F)cc2)CC1)c1ccc(F)cc1 (stereo not drawn),3,-1,.,.,-15,3,.,.,
O=C(N/N=C/c1cc([N+](=O)[O-])ccc1O)C(O)(c1ccccc1)c1ccccc1,3,-3,18,27,8,-25,9,i,
c1ccc(C2c3[nH]c4ccccc4c3CCN2Cc2cccn2-c2ccccn2)nc1 (stereo not drawn),-1,-5,4,8,19,-3,7,i,
O=C1Nc2ccc(Br)cc2C1Cc1ccccc1F (stereo not drawn),4,-3,1,-6,-13,-14,1,i,
Cc1c(NC(=O)Nc2ccc(C#N)cc2)c(=O)n(-c2ccccc2)n1C,0,-4,6,-6,11,-5,5,i,
CCCC(C)NC(=S)Nc1cc(C)cc(C)c1 (stereo not drawn),3,7,-5,-6,-14,-15,-6,i,
COc1ccc(N(CC(=O)N2CCN(Cc3ccccc3)CC2)S(C)(=O)=O)c(OC)c1,4,1,-4,2,4,0,5,i,
CSCC[C@H](NC(=O)c1cc([N+](=O)[O-])ccc1Cl)c1nc2ccccc2[nH]1,-7,0,-6,-13,3,-14,-8,i,
N#Cc1cnn2cc(CCN3CCOCC3)c(-c3ccc(F)cc3)nc12,1,0,18,-12,16,-15,-2,i,
COC1OC2COC(c3ccccc3)OC2C(OC(=O)c2ccccc2)C1OC(=O)c1ccccc1 (stereo not drawn),0,1,.,.,-9,-16,.,.,
O=S(=O)(c1ccc(F)cc1)N1CCN(CCOc2ccccc2)CC1,-5,-7,.,.,17,-4,.,.,
